BJeLR lethal: BJeLR cell viability loss | BJeLR (HRASV12) viability, CellTiter-Glo ATP luminescence, 48 h; reference of the scale not given here | inhibition, % (no concentration beside the values) | 300,000 tested, 0.17% active;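 active = replicate mean above 50%; inconclusive = above 50% but judged a plate artefact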;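 note: 50 nL library stock added to about 25 µL; numbers are from one replicate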
Sa ugtP lethal: kills S. aureus RN4220 lacking UgtP; S. aureus RN4220 ugtP deletion, OD600 growth, 16 h; some inactives read as strong as hits; AID 1259309; growth inhibition, % (no concentration beside the values); 330,000 tested, 0.54% active;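 active = z-score under -3 and OD600 up to 0.15 on both plates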;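 note: plate controls were untreated wells for no effect and antibiotic for full effect; wells of about 80 µL received 100 nL stock; the first replicate is given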
Mtb hypoxia rep: inhibitors of hypoxia-regulated fluorescent reporter in Mycobacterium tuberculosis | M. tuberculosis hypoxia-regulated fluorescent reporter, fluorescence | fluorescence inhibition, % (test concentration not listed) | 300,000 tested, 0.1% active;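 active = 35 to 45% if threefold the growth effect, above 45% if 1.5-fold the growth effect; inactive = the rest, general growth blockers included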;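 note: wells of about 50 µL received 100 nL stock; 0% = vehicle wells and 100% = reference inhibitor wells; whole bacteria with a GFP reporter of the hypoxia response; strong numbers were not always called active; many hits fall short of the cut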
Sa RN4220 lethal: kills Staphylococcus aureus RN4220; S. aureus RN4220 growth, OD600, 16 h; inhibition, % (test concentration not listed); 330,000 tested, 0.33% active; AID 1259311;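 active = z-score of -3 or lower and OD600 up to 0.18 on both plates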;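 note: plate controls were untreated cells for no effect and reference antibiotic for full effect; stock transfer was 100 nL into about 80 µL; one replicate is shown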
PrP UTR inh: suppresses PrP 5' UTR mRNA reporter expression | cell-based PrP 5' UTR mRNA reporter, plate reader | inhibition, % (test concentration not listed) | 340,000 tested, 0.35% active;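 active = every replicate at 50% or more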;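 note: 0 = median of the neutral control wells; tested in H4 reporter cells; numbers are from one replicate; inactives centre near -14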
Bead autofluor: compound fluorescence in toxin protease inhibitor counterscreen | fluorescence intensity (test concentration not listed) | 360,000 tested, 3.1% active | compound autofluorescence counterscreen, microsphere flow cytometry; stronger effect = higher value;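 active = at least 3 SD above the mean of all compounds, about 16000 in these data; inconclusive = too few beads counted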;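 note: 100 nL of 1 mM stock went into each well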
Mtb hypoxia rep growth: recorded beside Mtb hypoxia rep, whose call it bears; growth inhibition, %; measured here: M. tuberculosis growth (absorbance);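 0% = vehicle and 100% = reference antibiotic; read after six days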
The depositor's hits bear a star; ? = inconclusive; nt = not tested or not shown.

mol | BJeLR lethal | Sa ugtP lethal | Mtb hypoxia rep | Mtb hypoxia rep growth | Sa RN4220 lethal | PrP UTR inh | Bead autofluor
COc1ccc(-n2cnc3cc(NC(=O)c4ccco4)ccc32)cc1 | 5 | 3 | 1 | 5 | -0.4 | -70 | 10359
COc1ccc(F)cc1C(=O)C1CCCN(Cc2ccc(O)cc2)C1 (stereo unspecified) | 0 | 5 | 13 | 6 | 2.7 | -11 | 3362
O=C(Nc1nnc(-c2ccco2)o1)c1ccc(S(=O)(=O)N2CCCC2)cc1 | -6 | 2 | 8 | 11 | 8.6 | -25 | 2278
CCC(C(=O)Nc1ccccn1)c1ccccc1 (stereo unspecified) | -1 | 5 | 9 | -2 | 4.1 | -9 | 4719
COc1ccc(-n2c3c(cc(C(=O)Nc4cccc(C)n4)c2=O)C(=O)CC(C)(C)C3)cc1 | nt | 4 | 3 | 2 | 7.3 | -1 | 4591
C/C(CC(O)(/C=N/O)c1ccccc1)=N\O (stereo unspecified) | 4 | nt | nt | nt | nt | -23 | 9332
COc1cc(C)c(N(C(C)=O)c2ccccc2)c(C)c1 | -14 | -1 | nt | nt | 7.1 | -16 | 2495
O=[N+]([O-])c1ccc(NC(=S)NCc2ccc(F)cc2)cc1 | -5 | nt | nt | nt | nt | -28 | 3845
CC(c1ccccc1)c1nnc(NC(=O)Nc2ccccc2)s1 (stereo unspecified) | -4 | -13 | 3 | -10 | -6.1 | -17 | nt
CCOC(=O)C(C#N)c1ccccn1 (stereo unspecified) | -2 | 1 | 9 | 4 | 6.7 | -35 | 11589
O=C(COC(=O)c1ccco1)NCc1ccc(F)cc1 | -6 | 11 | 4 | -4 | 7.9 | -39 | 4262
Cc1ccc(CNS(=O)(=O)c2ccc3c(c2)NC(=O)C(C)S3)cc1 (stereo unspecified) | -4 | -5 | -5 | 0 | 31 | -19 | 5842
COc1cc(C=NNC(=O)c2ccoc2C)ccc1OCCN1CCCCC1 | nt | 15 | -5 | -8 | 4.5 | nt | nt
COc1ccc(CCNC(=O)COC(=O)Cn2cnc3ccccc3c2=O)cc1 | -10 | 4 | 8 | 5 | 6.8 | -16 | 3711
Cc1cc(C)cc(NC(=S)N(CCN(C)C)C(C)c2cccnc2)c1 (stereo unspecified) | 2 | 19 | 5 | 2 | 9.0 | -21 | 3340
Cc1cc([N+](=O)[O-])nn1Cc1noc(C(=O)NCc2ccc3c(c2)OCO3)n1 | 2 | 10 | -1 | -5 | -0.6 | -16 | 4021
CCN(CC(=O)Nc1ccccc1C(F)(F)F)C(=O)C1CCN(C(=O)Nc2ccccc2)CC1 | nt | 3 | 4 | 0 | 4.3 | 0 | 4024
Cc1cccn2c(=O)c3cc(C(=O)NCC4CCCO4)c(=N)n(Cc4ccc(F)cc4)c3nc12 (stereo unspecified) | 3 | 2 | 1 | 2 | 1.5 | -5 | 4929
O=S(=O)(NC1c2cccc3cccc(c23)C1Sc1ncccn1)c1ccccc1 (stereo unspecified) | 4 | -14 | 6 | 2 | 3.8 | 43 | 2108
COc1cccc(NC(=O)CSc2nc(C3CC3)nc3ccccc23)c1 | -17 | -4 | 10 | -1 | 7.2 | 8 | 3078
COc1ccc(CN=C(C)c2c(C(F)(F)F)[nH]n(-c3nc4ccccc4s3)c2=O)cc1 | -5 | 1 | 9 | 6 | 6.4 | -23 | 3122
Cc1ccsc1C(=O)N1CCCC(CCC(=O)N2CCN(c3ccccn3)CC2)C1 (stereo unspecified) | 4 | 1 | -2 | -4 | 5.2 | -1 | 3331
CCCCOC(=O)c1ccc(NC(=O)CSCc2n[nH]c(=O)[nH]2)cc1 | 3 | 3 | -2 | 10 | 1.9 | -7 | 2888
CCN1C(=NCCOC)N[C@@H](CCc2ccccc2)[C@H](C(=O)OC)[C@H]1C | 3 | nt | nt | nt | nt | -16 | 3819
OCCN(CC(O)COc1ccccc1)CC(O)Cn1ccc2ccccc21 (stereo unspecified) | 3 | 10 | -8 | 2 | 2.4 | -7 | 2653
Cc1nn(CC(=O)NCCc2ccccc2)c(=O)c2ccccc12 | 3 | 0 | nt | nt | 1.2 | -7 | 3154
Cc1ccc(C=NNc2nncn2N)cc1 | nt | 4 | -3 | 2 | 0.5 | nt | nt
CCOc1cc(C(=O)OC(C)C(=O)Nc2ncc(Cl)cc2Cl)ccc1OCC(=O)N1CCOCC1 (stereo unspecified) | -4 | -5 | 10 | 5 | 6.2 | -10 | 2680
CCN(CC)c1ccc(C=NNC(=O)C2CC2)cc1 | nt | 4 | 4 | 1 | 0.5 | nt | nt
CCCCC(=O)NCCc1ccc(S(N)(=O)=O)cc1 | -1 | -5 | 0 | 7 | 6.0 | -21 | 16934*

Sorted by molar mass (low to high): 3 of the compounds above
mol | BJeLR lethal | Sa ugtP lethal | Mtb hypoxia rep | Mtb hypoxia rep growth | Sa RN4220 lethal | PrP UTR inh | Bead autofluor
CCN(CC)c1ccc(C=NNC(=O)C2CC2)cc1 | nt | 4 | 4 | 1 | 0.5 | nt | nt
CCCCC(=O)NCCc1ccc(S(N)(=O)=O)cc1 | -1 | -5 | 0 | 7 | 6.0 | -21 | 16934*
CCOc1cc(C(=O)OC(C)C(=O)Nc2ncc(Cl)cc2Cl)ccc1OCC(=O)N1CCOCC1 (stereo unspecified) | -4 | -5 | 10 | 5 | 6.2 | -10 | 2680

(more compounds)
mol | BJeLR lethal | Sa ugtP lethal | Mtb hypoxia rep | Mtb hypoxia rep growth | Sa RN4220 lethal | PrP UTR inh | Bead autofluor
Cc1nc(-c2ccccc2)sc1-c1n[nH]c(=S)n1C | -19 | -1 | 13 | 9 | 5.7 | -10 | ?
Cc1ccccc1CN1CCSc2sccc2C1=O | 8 | 13 | 9 | 11 | 1.1 | -3 | 4506
CC1CCCN(C(=O)c2cc(-c3cccs3)nc3ccccc23)C1 (stereo unspecified) | nt | 3 | 4 | 6 | 2.5 | -6 | 3229
COc1ccc(N(C(=O)Cn2nnc(-c3ccccc3F)n2)C(C(=O)NCC2CCCO2)c2ccc(Cl)cc2)cc1 (stereo unspecified) | -16 | 3 | 11 | 6 | 1.0 | -39 | 3580
CCCN1CCC(NC(=O)C2CCN(C(C)=O)CC2)CC1 | 15 | 8 | 3 | 11 | -2.2 | -9 | 3712
Brc1ccc(-c2nnc(-c3cccnc3)c3conc23)cc1 | 0 | -8 | 9 | 9 | 5.0 | nt | nt
Clc1ccc(N2CCN(Cc3ccccc3Cl)CC2)cc1 | 1 | 36 | 4 | 1 | 6.8 | -8 | 8021
CCCOc1ccc(C(=O)NNC(=S)NC(=O)c2ccccc2)cc1 | 7 | nt | nt | nt | nt | -5 | 3021
CCOC(=O)/C(C#N)=C/c1ccc(N2CCCCC2)cc1 | -4 | 7 | 11 | 3 | 8.6 | -52 | 2721
N#Cc1ccc(N2CCOCC2)c([N+](=O)[O-])c1 | 10 | -1 | 8 | 6 | 7.7 | -12 | 3652
CC1=NNC(=O)C1CCC(=O)N/N=C(\C)c1ccccc1 (stereo unspecified) | 8 | nt | nt | nt | nt | -15 | 3359
COc1cc(C)c(S(=O)(=O)N2CCOCC2)c(C)c1C | -2 | 4 | 5 | 2 | 6.7 | -15 | 4382
O=C(Nc1nnc(C2CC2)o1)c1ccc(S(=O)(=O)N2CCCc3ccccc32)cc1 | 6 | 94* | -7 | 3 | 89* | 1 | 5588
Cc1ccc2[nH]c(=O)c(CN3CCCCC3)c(-c3ccccc3)c2c1 | 5 | 4 | -9 | -1 | 2.4 | -9 | 4763
C[C@H](NC(=O)N1CCn2c1nc1ccccc12)C(=O)NCc1ccc(F)cc1 | -3 | 3 | 1 | 9 | 1.1 | -11 | 4849
Cn1ccc(NC(=O)Nc2ccc(Cl)cc2)n1 | -1 | 2 | 3 | 2 | 0.5 | -30 | 3682
COc1ccccc1OCC(=O)Nc1ccc2c(c1)OCCO2 | -10 | -1 | 0 | 11 | 0.4 | -29 | 3739
CN(CC(=O)Nc1ccccc1Br)C(=O)c1sccc1-c1ccccc1 | nt | 2 | 4 | -2 | 4.8 | -19 | 6976
Nc1nc(-c2ccc(Cl)cc2)cc(C(F)(F)F)n1 | 16 | -15 | 2 | 4 | 7.3 | nt | 11038
Nc1cccc(Oc2ccc3c(c2)C(=O)N(CC2CCCO2)C3=O)c1 (stereo unspecified) | 5 | -1 | -1 | 6 | 4.3 | -54 | 5862
Cc1ccc(CN(C(=O)COc2ccc([N+](=O)[O-])cc2)C2CCS(=O)(=O)C2)o1 (stereo unspecified) | 2 | -1 | 9 | 4 | 0.1 | -6 | 5657
O=C(Nc1ncc2c(n1)-c1ccccc1OC2)c1ccc(F)cc1 | 1 | 3 | 15 | 21 | 13 | 2 | 3958
Cc1ccc(O)c(CNc2ccccn2)c1 | -2 | 4 | nt | nt | -0.6 | -32 | 3112
COc1ccc(N/C=C/C(=O)c2ccccc2)cc1 | 7 | 9 | 5 | -15 | 2.8 | 28 | 4236
COC(=O)C1=C(c2ccc(F)cc2F)CC2CCC1N2C(=O)N1CCC(C)CC1 (stereo unspecified) | nt | 0 | 5 | 2 | 2.2 | nt | nt
CC(C)N1CCc2c(sc(NC(=O)c3ccco3)c2C(N)=O)C1 | 3 | 7 | -3 | -5 | 4.0 | -8 | 4605
COC(=O)c1cc(S(=O)(=O)Nc2nn(C)c3ccccc23)oc1C | -4 | 8 | 17 | 8 | 6.1 | -18 | 4118
Nc1ccc(-c2nnc(-c3ccccc3)o2)cc1 | 4 | -2 | 9 | 18 | 6.3 | -25 | 3455
Cc1ccc(OCc2cn3cccnc3n2)cc1 | 9 | 3 | -3 | 10 | -2.4 | -34 | 2255
CCC1(c2ccc(Cl)cc2)NC(=O)N(CC(=O)N2CCN(C(=O)c3ccco3)CC2)C1=O (stereo unspecified) | nt | 1 | 4 | 15 | 1.3 | -18 | 3325
CCC1S/C(=N\S(=O)(=O)c2cccs2)N(C2CCCCC2)C1=O (stereo unspecified) | 4 | nt | nt | nt | nt | -11 | 2724
CC(=O)NC12CC3CC(C1)CC(C(=O)N(C)CC(=O)Nc1cccc(F)c1)(C3)C2 | nt | 4 | 8 | 7 | 2.0 | -6 | 3865
CN(Cc1ccccc1)C(=O)CCCn1c(=O)[nH]c2cc(Cl)ccc2c1=O | -5 | -2 | nt | nt | -0.8 | -9 | 3626
CCOC(=O)NN=Cc1c(C)nn(-c2cccc(C(F)(F)F)c2)c1Cl | nt | -12 | 12 | 7 | -0.8 | nt | nt
Cc1ccc(N(CC(=O)NC(C)C)C(=O)CCC(=O)Nc2nccs2)cc1 | 5 | 5 | -10 | -7 | 8.0 | -6 | 4216
CCOc1ccc(N(C)S(=O)(=O)c2cc(-c3cc(C)no3)ccc2C(C)C)cc1 | 14 | 24 | 7 | 3 | 9.3 | -4 | 4183
CCN1CCN(c2cc(C)c3cc(NC(=S)NCc4cccs4)ccc3n2)CC1 | 0 | 5 | 7 | 14 | 4.8 | -14 | 4650
Cc1nn(-c2cccc(Cl)c2)c(Cl)c1C=NNC(=O)c1cccnc1 | nt | 1 | 4 | 8 | 3.2 | nt | nt
Cn1c(O)c(C2=c3ccccc3=NC2=O)sc1=Nc1ccc(Cl)cc1 | 0 | -22 | 4 | 4 | 10 | -40 | 19149*
CCN(CC)c1ccc(CN(C(=O)c2cccs2)C2CCS(=O)(=O)C2)cc1 (stereo unspecified) | 4 | -9 | -5 | 1 | -1.3 | -17 | 5404
Cc1ccc(NC(=O)CSc2nnc(C)c(=O)[nH]2)cc1C | -11 | 4 | 19 | 8 | 6.9 | -32 | 2415
CCOc1ccc(NC(=O)CN2C(=O)S/C(=C/c3cccn3C)C2=O)cc1 | 6 | nt | nt | nt | nt | -13 | 2301
Cc1cc(CNC(=O)c2cccc([N+](=O)[O-])c2C)c2ccccc2n1 | -7 | 6 | 7 | 6 | 7.2 | -2 | 6114
CC1CCCCC1NC(=O)COc1ncnc2sccc12 (stereo unspecified) | nt | 6 | 6 | 2 | 3.1 | -29 | 7022
COc1ccc2c(c1)CC/C(=C\c1ccc(C)o1)C2=O | 2 | 27 | 10 | 7 | 0.2 | -159 | 4776
